NPYLR7 agonist = agonists of mosquito NPYLR7 receptor, primary screen, cell-based, Aedes aegypti, calcium fluorescence, mosquito biting behavior; 270,000 tested, 0.15% active; Aedes aegypti neuropeptide Y-like receptor 7 (NPYLR7); activation, % at 10 µM; AID 1259423, 2018; HEK293T NPYLR7/Galpha15, GCaMP6s calcium fluorescence; in the data active = activation above about 40%;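 note: 0% = vehicle and 100% = reference agonist at the receptor; some compounds past the cut are filed as inactive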
NPYLR7 agonist max-min = recorded beside NPYLR7 agonist, whose call it bears; activation, %; measured here: Max-Min RFU normalised activation; some inactives read as strong as hits;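 span of the calcium signal over five minutes; 0% = vehicle and 100% = native peptide agonist; compound fluorescence can raise it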
* hit, by the source's call; & = joins results of further samples.

nr | SMILES | NPYLR7 agonist | NPYLR7 agonist max-min
1 | Cc1onc(C(=O)N2CCCN(Cc3ccc(F)cc3)C(C(C)C)C2)c1CO (stereo not given) | 3 | 15
2 | COc1cccc2cc(-c3nnc(-c4ccc([N+](=O)[O-])cc4)o3)c(=O)oc12 | 9 | 3
3 | CC(C)CN1CC(C(=O)N2CCC(O)(c3ccccc3)CC2)CC1=O (stereo not given) | 1 | 26
4 | Cc1nccn1-c1cc(NCCNC(=O)Cc2ccccc2)ncn1 | -16 | -17
5 | O=C(NCc1nnnn1-c1ccc(F)c(F)c1)c1cccs1 | 5 | 4
6 | COc1ccc(-n2nc(-c3cccc(OC)c3)cc2C(=O)NCCN2CCCCC2)cc1 | -5 | -2
7 | Cc1cc(NC(=O)c2ccc(N3CCCC3=O)cc2)ccn1 | 2 | 1
8 | O=C(NCc1ccccc1)c1cnn2c1NC(c1ccc(F)cc1)CC2C(F)(F)F (stereo not given) | -5 | -5
9 | O=C(c1coc(COc2ccccc2F)n1)N1CCS(=O)(=O)CC1 | 4 | 3
10 | CCn1cnnc1C1CCN(C(=O)c2ccc(C)s2)CC1 | 11 | 8
11 | O=C(NCc1cccnc1)NC1(c2ccccc2)CCC1 | -19 | -23
12 | CC1(C)Cc2cc(CN3CCCC(N4CCCC4=O)C3)ccc2O1 (stereo not given) | 6 | 3

Additional results follow.
nr | SMILES | NPYLR7 agonist | NPYLR7 agonist max-min
13 | COc1ccc(N2C(=O)CSC2c2ccccc2F)cc1Cl (stereo not given) | -1 | 0
14 | c1cncc(-c2ccc(SC3CCCC3)nn2)c1 | 1 | -8
15 | Cc1cc(C(=O)NN=C2CCCCCC2)c(C)o1 | 1 | 1
16 | CCn1nc(C)cc1C(=O)N(CCC#N)c1ccc(C)c(C)c1 | 13 | 11
17 | CNc1cc(C)nc(N2CCC3(CCNCC3)CC2)n1 | 2 | -1
18 | COc1ccc(NC(=O)CSc2nc3sc(C)cc3c(=O)n2Cc2ccco2)cc1 | 0 | 0
19 | CN(CCc1ccccn1)c1ncccc1CNC(=O)c1cnc2ccccn12 | 7 | 7
20 | CCCNC(=O)c1oc2ccc(Br)cc2c1C | 18 | 7
21 | O=C(CCN1CCOCC1)N1N=C(c2cccs2)CC1c1cccs1 (stereo not given) | 1 | -1
22 | CCNC(=O)C1(C)CCCN(Cc2ccnc3ccccc23)C1 (stereo not given) | -1 | -2
23 | CC(c1nc2ccccc2c(=O)[nH]1)N1CCN(c2ccccn2)CC1 (stereo not given) | -16 | -16
24 | NC(Cc1cnc[nH]1)c1csc(Nc2ccc(C(F)(F)F)cn2)n1 (stereo not given) | -4 | -12

Going on with the list:
nr | SMILES | NPYLR7 agonist | NPYLR7 agonist max-min
25 | N[C@H]1CN[C@H](C(=O)N2CCC(c3nc(-c4ccccc4)no3)CC2)C1 | -4 | -11
26 | Cc1c(C)n2c3c(=O)[nH]c(=O)n(C)c3nc2n1-c1ccc(N(C)C)cc1 | 5 | -1
27 | Cc1cccc(NC(C)c2ccc(F)cc2)c1 (stereo not given) | 22 | 14
28 | CCS(=O)(=O)c1ccc(N2CCC(Nc3ncccc3C#N)CC2)cc1 | -1 | -1
29 | COc1ccc(Nc2nc(NCCO)nc3nccnc23)cc1 | 1 | 2
30 | O=C(C1=C(O)C(=O)N(CCCn2ccnc2)C1c1ccc(Cl)cc1)c1ccco1 (stereo not given) | 6 | 4
31 | Cc1nc(-c2ccc(CCNC(=O)CCc3ccco3)cc2)cs1 | 5 | 4
32 | Oc1ccc(O)c([S+]2CCCCC2)c1 | -8 | -16
33 | Cc1nc(C)c(C(=O)N2CCCn3cncc3C2)s1 | 2 | 3
34 | N#Cc1ccc(CON=Cc2cccc(F)c2)cc1 | -4 | -6
35 | CCC1CN(c2cncc(C(=O)N(C)C)n2)CCC(=O)N1Cc1ccccc1 (stereo not given) | 11 | 9
36 | COC(=O)c1ccc(-c2noc(CN3CCN(c4ccccc4)CC3C)n2)cc1 (stereo not given) | -1 | -2

Additional entries
nr | SMILES | NPYLR7 agonist | NPYLR7 agonist max-min
37 | Cc1ccc(-n2nnnc2SCC(=O)NC(=O)CN2CCCC2=O)cc1C | 5 | 3
38 | O=C(NCC1(c2ccccc2)CC1)C1CCN(S(=O)(=O)c2ccccc2)CC1 | 5 | 6
39 | Cc1ccsc1C(=O)N1CCC(n2nccc2NC(=O)c2cccc(F)c2)CC1 | 13 | 6
40 | COC(=O)c1ccc(CN2CCN(CC=C(C)C)C(CCO)C2)cc1 (stereo not given) | -1 | -5
41 | CSc1ccc(NC(C)=O)nn1 | 8 | 8
42 | NC(=O)c1cn(-c2ncc(Br)cn2)cn1 | -1 | 23
43 | O=C(NCC1CCCO1)c1ccccc1NS(=O)(=O)c1ccc(Cl)s1 (stereo not given) | 11 | 10
44 | Cc1ccc2oc(-c3ccc(NC(=O)c4ccccc4Cl)cc3O)nc2c1 | -10 | -14
45 | Cc1cc(C(C#N)C(=O)/C=C/c2ccc(N(C)C)cc2)nc(C)n1 (stereo not given) | 29 | 24
46 | O=C(NCc1ccco1)c1cccc(Cl)c1Cl | 6 | 8
47 | COCCn1c(O)c(C=Nc2ccc(SC#N)cc2C)c(=O)[nH]c1=S | -3 | -5
48 | COC(=O)c1ccc2c(c1)C1CC(C)(O2)N(c2cccc(C)c2)C(=S)N1 (stereo not given) | -4 | -7

New compounds follow:
nr | SMILES | NPYLR7 agonist | NPYLR7 agonist max-min
49 | OC1C2CN3CCN(C2)CC1(Cc1ccccc1)C3 (stereo not given) | -3 | -3
50 | COc1ccccc1-c1nc2ccc(C)cn2c1NC(=O)c1cccc(F)c1 | -3 | 3
51 | CCc1nc2n(n1)C(=O)C(C(c1cccc(C)c1)N1CCOCC1)S2 (stereo not given) | -4 | -9
52 | CC(=O)c1cccc(Nc2nccc3[nH]c(-c4cccc(F)c4)cc23)c1 | -18 | -21
53 | COc1ccccc1-c1ncc(C2CC(=O)Nc3c2cnn3CC2CC2)cn1 (stereo not given) | -3 | -6
54 | COc1ccccc1Nc1nnc(CC(=O)N2CCN(c3cccc(C)c3C)CC2)s1 | -8 | -9
55 | CC(=O)Nc1cncc(-c2cccc(C(=O)NCCN(C)C)c2)n1 | 1 | 0
56 | Cc1nc(CSc2ccccc2C(=O)N2CCC(C(=O)NC(C)C)CC2)no1 | -5 | -6
57 | O=C(NCCN1CCCC1)c1cc(-c2ccccc2Cl)nc2cc(-c3ccccc3)nn12 | 11 | 24
58 | Cc1ccc(NC(=O)c2cnc(SCc3cccnc3)n(C)c2=O)cc1C | 8 | 2
59 | Cc1cc(C(=O)NCc2ccc(F)cc2)nc2cc(C(C)(C)C)nn12 | 2 | 8
60 | CC1CCCCN1C(=O)C(NC(=O)c1cccs1)C1CCN(C(=O)C2CC2)CC1 (stereo not given) | 8 | 9

Carrying on.
nr | SMILES | NPYLR7 agonist | NPYLR7 agonist max-min
61 | Cc1ccn(C(=O)C2CC(=O)Nc3cc(F)ccc32)c(=NC2CCCCC2)c1 (stereo not given) | 0 | -1
62 | O=C(Cc1cccnc1)N1CCCC(CCc2ccc(F)cc2)C1 (stereo not given) | 5 | 2
63 | O=C(O)CN1C(=O)/C(=C\c2ccc(-c3ccc([N+](=O)[O-])cc3)o2)SC1=S | 7 | 6
64 | COc1ccc(-c2[nH]ncc2CNC(=O)CC2NC(=O)c3ccccc32)cc1 (stereo not given) | -10 | -10
65 | O=C(Nc1ccc(N2CCC(Cc3ccccc3)CC2)c(C(=O)N2CCCC2)c1)c1cc(C(F)(F)F)cc(C(F)(F)F)c1 | 23 | 26
66 | Cn1cnc(C(=O)NCCOc2ccc(Cl)cc2)c1 | -1 | -4
67 | Cc1cc(C)c(Cn2ccnc2CN(C(=O)C2CCCC2)C2CC2)c(C)c1 | -4 | 6
68 | Cc1n[nH]c(C)c1CCN1CCC(N2CCCC2=O)CC1 | -3 | -7
69 | COC(=O)[C@@H]1Cc2nc[nH]c2CN1C1CCOCC1 | -6 | -15
70 | COc1ccc(N2C(=O)/C(=C\c3ccncc3)N(C)C2=S)c([N+](=O)[O-])c1 | -7 | 4
71 | CCOc1nc(-c2ccc(Cl)c(Cl)c2)n(-c2cccc(NC(=O)c3cccc([N+](=O)[O-])c3)c2)n1 | -2 | 1
72 | CN=C(NC)NCc1ccccc1 | -5 | -10

Continued.
nr | SMILES | NPYLR7 agonist | NPYLR7 agonist max-min
73 | O=C1c2nc(Nc3ccncc3)ccc2CN1C1(C(=O)NCCCn2ccnc2)CC1 | 5 | 0
74 | NS(=O)(=O)c1ccc(Cl)c(S(N)(=O)=O)c1 | 10&3 | 11&2
75 | Cc1ccc(NC(=O)CSc2ccc(NC(=O)C(C)C)nn2)cc1Cl | -3 | -5
76 | C=CCCC(=O)Nc1c(OC(=O)N(CC)CC)ccc2c1ccn2Cc1ccccc1 | -2 | -7
77 | CCc1nc(NCCNS(=O)(=O)c2ccc(Cl)cc2)c2ccc(Cl)cc2n1 | 3 | 8
78 | O=C(O)c1ccc(C2CCN(CC(=O)N3CCCCCC3)C2)cc1 (stereo not given) | -4 | -11
79 | O=S(=O)(CCSc1nncs1)c1ccc(Br)cc1 | -2 | -2
80 | O=C(c1ccc(-c2cc(-c3ccc(Cl)cc3)[nH]n2)cc1)N1CC=CC1 | -3 | -13
81 | COCCN(CCC(=O)NC(Cc1ccccc1)c1ccccc1)c1nc(Cc2cccc(OC)c2)ns1 (stereo not given) | -6 | -1
82 | CCN(Cc1noc(C)n1)C(=O)c1csc(Cc2ccccc2)n1 | 2 | 0
83 | Cc1ccc(-n2nnc(C(=O)OCc3nc(-c4ccccc4)oc3C)c2C)cc1F | 0 | -6
84 | O=C(NCc1nnc(SCc2ccccc2)n1-c1cc(Cl)ccc1Cl)c1ccc([N+](=O)[O-])cc1Cl | -3 | -3

New compounds follow
nr | SMILES | NPYLR7 agonist | NPYLR7 agonist max-min
85 | CCC(C)N(CC(=O)N(CCc1ccccc1)Cc1ccco1)C(=O)c1ccc(OC)cc1 (stereo not given) | -4 | 4
86 | Cc1ccc(-c2ccnc(N(C)Cc3nnc(-c4ccccc4)o3)n2)c(C)n1 | 9 | 7
87 | CNS(=O)(=O)c1ccc(CN2CCN(Cc3cccc(F)c3)CC2)cc1 | 6 | 5
88 | CC(=O)c1cc(C(=O)N2CCCC(C(=O)c3ccc(-c4ccccc4)c(F)c3)C2)[nH]n1 (stereo not given) | 5 | 7
89 | COc1ccc(CN2CC(OCc3ccccc3F)CN(C3CCN(C(C)C)CC3)CC2=O)cc1 (stereo not given) | 8 | 0
90 | CCn1c(=O)c2c(nc3n2CC(C)=NN3Cc2ccc(Cl)cc2)n(C)c1=O | -2 | 4
91 | CC(c1ccc(-c2cnc(N)cn2)cc1)N1CCCC1 (stereo not given) | 3 | 2
92 | COc1ccc(-c2csc(NC(C)=O)n2)cc1Br | 0 | -3

From PubChem

Only part of the results is shown, so the mix of outcomes need not match the whole.
